UUG fidelity: yeast start codon fidelity modulation; S. cerevisiae UUG-firefly luciferase reporter, luminescence/redox ratio; activity score, % at 18.7 µM; 350,000 compounds, 0.13% hits;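 active means replicate mean at a twofold rise or more, about +100% in these data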;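 further: firefly luciferase made from a UUG start codon reports start codon fidelity; reporter light over untreated wells divided by growth signal over untreated wells; some hits fall short of that in this replicate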
HIV Env fusion: inhibitors of HIV Env-mediated cell fusion. HeLa-JRFL Env/CEM21 cell fusion, luciferase. inhibition, % at 12.3 µM. 360,000 compounds, 1.1% hits. AID 651610;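 active means mean replicate inhibition score of at least 50 and every replicate individually at or above 50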;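 further: 0% = plate neutral controls and 100% = maraviroc near 300 nM; one replicate is shown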
eIF4H inh: inhibitors of RNA binding by human eIF4H; 290,000 compounds, 0.94% hits; inhibition, % at 35 µM; Q15056; AID 2012; eIF4H fluorescence polarization binding assay;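 active means 50% or more with normal probe brightness, or confirmed in later tests; about a fifth of its hits are not listed in these tables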;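 further: calls also rest on retests at 20 µM and on dose response follow-up; 0% = protein and probe with vehicle and 100% = probe without protein; strong numbers were not always called active; many hits fall short of the cut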
CSC inhib: blocks cancer stem cells; cancer stem cell-like cells viability, luminescence; inhibition, % at 7.5 µM; 300,000 compounds, 1.1% hits; AID 2717;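 active means mean at 75% or more and at least half the replicates too; tested in HMLE shEcad cells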;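 further: 0% = median of negative and 100% = median of positive control wells; the first replicate is given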
PABP FP inh: blocks human PABP binding to poly(A) RNA | inhibition, % at 35 µM | P11940 | AID 2014 | 290,000 compounds, 1% hits | fluorescence polarization;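 active means 50% or more with normal probe brightness, or confirmed in later tests; about a fifth of its hits are not listed in these tables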;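 further: calls also rest on retests at 20 µM and on dose response follow-up; controls were probe without protein and protein plus probe with vehicle; some compounds called inactive have numbers as strong as hits; many hits fall short of the cut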
Target sequence (P11940 whole entry, looked up): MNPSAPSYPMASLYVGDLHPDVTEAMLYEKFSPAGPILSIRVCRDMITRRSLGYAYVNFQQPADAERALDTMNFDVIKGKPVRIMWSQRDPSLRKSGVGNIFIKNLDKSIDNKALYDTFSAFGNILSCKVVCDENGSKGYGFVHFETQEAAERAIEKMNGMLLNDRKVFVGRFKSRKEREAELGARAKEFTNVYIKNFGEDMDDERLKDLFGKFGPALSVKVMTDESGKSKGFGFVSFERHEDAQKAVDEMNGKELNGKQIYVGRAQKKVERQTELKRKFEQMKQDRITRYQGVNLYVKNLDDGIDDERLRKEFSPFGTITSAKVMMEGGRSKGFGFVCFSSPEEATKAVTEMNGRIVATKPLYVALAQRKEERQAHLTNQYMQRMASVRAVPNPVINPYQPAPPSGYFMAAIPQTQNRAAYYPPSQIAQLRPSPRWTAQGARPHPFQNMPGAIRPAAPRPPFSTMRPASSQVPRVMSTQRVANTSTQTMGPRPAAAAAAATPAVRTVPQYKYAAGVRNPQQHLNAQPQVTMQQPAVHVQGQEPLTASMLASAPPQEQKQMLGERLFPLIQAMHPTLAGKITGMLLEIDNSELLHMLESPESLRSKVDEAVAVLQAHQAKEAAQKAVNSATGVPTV
MT1-MMP act inh: inhibitors of human MT1-MMP activation; HT1080 RFP-PRO-GFP cells, GFP/RFP ratio fluorescence, overnight; percent of plate control window, DMSO zero; GFP/RFP ratio change, % at 20 µM; 360,000 compounds, 0.061% hits;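 active means GFP/RFP ratio change of at least 30% with cell ATP level not reduced by more than half and red fluorescence within 50% of control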; further: strong numbers were not always called active
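Test system: HT1080 RFP-PRO-GFP cells; Benchmarks: DMSO and RFP-L50D-GFP cell wells; Timing: cells overnight before dosing, compound overnight, 37 °C, 5% CO2; Compound: one 20 µM compound dose with 1% DMSO; Read-out: GFP/RFP fluorescence ratio.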
Rce1 inhib: blocks yeast Ras-converting enzyme. Q03530. yeast membranes, quenched prenylated peptide cleavage fluorescence. calls only. 290,000 compounds, 0.27% hits;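 active means fall in fluorescence gain of 50% or more versus controls, with final raw signal at or below 3038400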;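 further: plate controls were neutral control wells for no effect and wells lacking membranes for full effect; tested at 10 µM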
Target sequence (Q03530 whole entry, looked up): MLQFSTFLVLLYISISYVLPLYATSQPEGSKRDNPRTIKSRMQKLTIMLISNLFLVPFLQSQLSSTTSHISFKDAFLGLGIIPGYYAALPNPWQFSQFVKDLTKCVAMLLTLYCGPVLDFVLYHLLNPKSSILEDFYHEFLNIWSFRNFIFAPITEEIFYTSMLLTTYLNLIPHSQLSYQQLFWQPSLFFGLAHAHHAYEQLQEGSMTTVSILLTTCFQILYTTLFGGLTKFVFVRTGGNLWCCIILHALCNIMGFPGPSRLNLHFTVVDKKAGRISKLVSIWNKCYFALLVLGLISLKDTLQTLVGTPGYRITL
eIF4H inh retest: also measured in eIF4H inh; calls as there; inhibition, %; compound at 20 µM; confirmation average;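 mean of two retest wells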
PABP FP inh retest: also measured in PABP FP inh; calls as there; inhibition, %; compound at 20 µM; confirmation repeats;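 mean of two retest wells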
MT1-MMP act inh RFP: recorded beside MT1-MMP act inh, whose call it bears; RFP signal change, %; measured here: RFP expression control read;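 0 = vehicle wells; hits needed this value within 50% of zero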
* marks the source's active call; other numbers are inactive results; & = joins results of further samples. This is a subset, so the mix of outcomes need not match the whole.

COCCN1Cc2cc(=O)n3c([nH]c4ccccc43)c2C1=N was read as UUG fidelity -17, HIV Env fusion -5, eIF4H inh 9, CSC inhib -3, PABP FP inh 3, MT1-MMP act inh 0, Rce1 inhib inactive and MT1-MMP act inh RFP 1.
Cc1ccc2c(c1)C1CN(C)CCC1N2C(=O)c1cccnc1Cl (configuration not stated) was read as HIV Env fusion -7, eIF4H inh -1, CSC inhib -10, PABP FP inh -6, MT1-MMP act inh -2, Rce1 inhib inactive and MT1-MMP act inh RFP 1.
Screening COC(=O)C1=C(c2ccc(-c3ccccc3)c(F)c2)C[C@@H]2CC[C@H]1N2C(=O)NCc1ccc(F)cc1 returned UUG fidelity -28, HIV Env fusion 10, CSC inhib 36, MT1-MMP act inh -2 and MT1-MMP act inh RFP -9.
COc1ccc(CN2CCCC(C(=O)c3ccccc3SC)C2)cc1O (configuration not stated) was read as UUG fidelity -9, HIV Env fusion -11, eIF4H inh -5, CSC inhib -6, PABP FP inh -1, MT1-MMP act inh 1, Rce1 inhib inactive and MT1-MMP act inh RFP 4.
Screening COc1ccc(CCn2c(O)c(C=NCCCN(C)C)c(=O)[nH]c2=O)cc1OC returned UUG fidelity 3, HIV Env fusion -44, eIF4H inh -2, CSC inhib -8, PABP FP inh -1, MT1-MMP act inh 3, Rce1 inhib inactive and MT1-MMP act inh RFP -5.
For CCCCCC[N+](=O)[O-] the results were UUG fidelity -12, CSC inhib -8, MT1-MMP act inh -1 and MT1-MMP act inh RFP 5.
`COC(=O)C1=C(c2ccccc2OCc2ccccc2)C[C@@H]2CC[C@H]1N2C(=O)NCc1ccc([N+](=O)[O-])cc1` gave UUG fidelity -6, HIV Env fusion 36, CSC inhib 5, MT1-MMP act inh 4 and MT1-MMP act inh RFP -5.
O=C1C2CCN(CC2)C1Cc1ccc(OCCOc2ccccc2)cc1 (configuration not stated) was read as UUG fidelity -6, eIF4H inh -4, CSC inhib 18, PABP FP inh 11, MT1-MMP act inh 1, Rce1 inhib inactive and MT1-MMP act inh RFP 4.
`O=C(Nc1ccccc1)c1cccn(Cc2ccccc2)c1=O` gave HIV Env fusion 16, eIF4H inh -13, CSC inhib 1, PABP FP inh 2, MT1-MMP act inh -10, Rce1 inhib inactive and MT1-MMP act inh RFP -22.
Screening CC(C)(C)c1o[nH]c(=O)c1CC(N)C(=O)O (configuration not stated) returned UUG fidelity -39, CSC inhib -6, MT1-MMP act inh -1 and MT1-MMP act inh RFP 4.
Screening COc1ccc(C(=O)C2CN(C)CC2C(=O)c2ccc(OC)cc2)cc1 (configuration not stated) returned UUG fidelity -43, eIF4H inh -12, CSC inhib -2, PABP FP inh -4, MT1-MMP act inh -4, Rce1 inhib inactive and MT1-MMP act inh RFP 0.
Screening CCC(COC(=O)NC)NC(=O)Oc1ccccc1 (configuration not stated) returned UUG fidelity -21, eIF4H inh -6, CSC inhib -11, PABP FP inh -1, MT1-MMP act inh -4, Rce1 inhib inactive and MT1-MMP act inh RFP 4.
Screening CN(C)CCN(CC1CCCN(Cc2ccccc2F)C1)C(=O)Cc1c(F)cccc1F (configuration not stated) returned UUG fidelity -17, HIV Env fusion -4, eIF4H inh -1, CSC inhib 0, PABP FP inh 9, MT1-MMP act inh 2, Rce1 inhib inactive and MT1-MMP act inh RFP 4.
Screening CC(C)N1C(=O)CC2(CC[N+](C)(CCOC(=O)C(O)(c3ccccc3)c3ccccc3)CC2)C1=O (configuration not stated) returned UUG fidelity 0, eIF4H inh 1.2*, CSC inhib -7, PABP FP inh 61*, MT1-MMP act inh -6, Rce1 inhib inactive, eIF4H inh retest 87*, PABP FP inh retest 77* and MT1-MMP act inh RFP -1.
C#CCN(C)C(C)Cc1ccccc1 (configuration not stated) was read as UUG fidelity -14, eIF4H inh -4, CSC inhib -7, PABP FP inh -4, MT1-MMP act inh 2, Rce1 inhib inactive and MT1-MMP act inh RFP 3.

A draw from above in order of heavy-atom count, ascending.
C#CCN(C)C(C)Cc1ccccc1 (configuration not stated) was read as UUG fidelity -14, eIF4H inh -4, CSC inhib -7, PABP FP inh -4, MT1-MMP act inh 2, Rce1 inhib inactive and MT1-MMP act inh RFP 3.
COCCN1Cc2cc(=O)n3c([nH]c4ccccc43)c2C1=N was read as UUG fidelity -17, HIV Env fusion -5, eIF4H inh 9, CSC inhib -3, PABP FP inh 3, MT1-MMP act inh 0, Rce1 inhib inactive and MT1-MMP act inh RFP 1.
Screening COc1ccc(CCn2c(O)c(C=NCCCN(C)C)c(=O)[nH]c2=O)cc1OC returned UUG fidelity 3, HIV Env fusion -44, eIF4H inh -2, CSC inhib -8, PABP FP inh -1, MT1-MMP act inh 3, Rce1 inhib inactive and MT1-MMP act inh RFP -5.

Additional records
CC1CN=C(NCc2ccccc2)S1 (configuration not stated) was read as UUG fidelity -12, HIV Env fusion -38, eIF4H inh 1, CSC inhib -5, PABP FP inh -8, MT1-MMP act inh -8, Rce1 inhib inactive and MT1-MMP act inh RFP -6.
Screening NCCc1c[nH]c2ccc(O)cc12 returned UUG fidelity 0, HIV Env fusion -30, CSC inhib 0, MT1-MMP act inh 1, Rce1 inhib inactive and MT1-MMP act inh RFP 5.
For COc1ccc(-n2c(=O)[nH]c3ccccc3c2=O)c(OC)c1 the results were UUG fidelity 7, HIV Env fusion 1, eIF4H inh 6, CSC inhib -12, PABP FP inh -5, MT1-MMP act inh -3, Rce1 inhib inactive and MT1-MMP act inh RFP 2.
CC1CC2(O)c3nonc3CCC2N1O (configuration not stated) was read as UUG fidelity -13, HIV Env fusion -10, eIF4H inh -3, CSC inhib -24, PABP FP inh 0, MT1-MMP act inh 0, Rce1 inhib inactive and MT1-MMP act inh RFP 1.
Screening CC(=O)N1CCN(Cc2ccc(Cl)nc2)CC1 returned UUG fidelity -4, HIV Env fusion -1, eIF4H inh -6, CSC inhib 10, PABP FP inh 2, MT1-MMP act inh 0, Rce1 inhib inactive and MT1-MMP act inh RFP 2.
For O=C(O)C(Cc1cnc[nH]1)NS(=O)(=O)c1ccc(Br)cc1 (configuration not stated) the results were UUG fidelity -20, HIV Env fusion 23, eIF4H inh -18, CSC inhib 11, PABP FP inh 2, MT1-MMP act inh -2, Rce1 inhib inactive and MT1-MMP act inh RFP 3.
For N#Cc1ccc(NC(=O)CN2C(=O)NC3(CCCCCCC3)C2=O)cc1Cl the results were UUG fidelity 9, HIV Env fusion 23, CSC inhib 31, MT1-MMP act inh -6 and MT1-MMP act inh RFP -1.
For O=C(NC(=S)N1C[C@H]2C[C@H](C1)c1cccc(=O)n1C2)c1ccc(Cl)cc1Cl the results were UUG fidelity -25, eIF4H inh -4, CSC inhib -2, PABP FP inh -2, MT1-MMP act inh 1, Rce1 inhib inactive and MT1-MMP act inh RFP 4.
Cc1ccc2c(c1)C1CN(C)CCC1N2C(=O)c1ccco1 (configuration not stated) was read as UUG fidelity -8, eIF4H inh -8, CSC inhib 14, PABP FP inh -2, MT1-MMP act inh -5, Rce1 inhib inactive and MT1-MMP act inh RFP -3.
For COc1ccc2c(c1)c(C(=O)CN1CCN(C)CC1)c(C)n2Cc1ccccc1 the results were UUG fidelity -1, eIF4H inh 4, CSC inhib -11, PABP FP inh 21, MT1-MMP act inh 1 and MT1-MMP act inh RFP -3.
`Cc1ccc(C(=O)n2cc(CCN3CCS(=O)(=O)CC3)c3ccccc32)cc1` gave UUG fidelity -12, HIV Env fusion 6, eIF4H inh -1, CSC inhib -13, PABP FP inh -1, MT1-MMP act inh 2, Rce1 inhib inactive and MT1-MMP act inh RFP -7.
`CC(C)Oc1cccc(C(=O)C2CCCN(Cc3ccon3)C2)c1` (configuration not stated) gave UUG fidelity -17, HIV Env fusion 18, eIF4H inh -2, CSC inhib -12, PABP FP inh -16, MT1-MMP act inh 0, Rce1 inhib inactive and MT1-MMP act inh RFP -4.
CCC(=NCc1cc(OC)cc(OC)c1)c1c(O)n(C2CCCCC2)c(=O)[nH]c1=O was read as UUG fidelity 5, HIV Env fusion 42, eIF4H inh -9, CSC inhib 16, PABP FP inh -8, MT1-MMP act inh 0, Rce1 inhib inactive and MT1-MMP act inh RFP -11.
CCCCn1c(O)c(C=NC2CCCCC2N)c(=O)[nH]c1=O (configuration not stated) was read as UUG fidelity -5, eIF4H inh -1, PABP FP inh 10, MT1-MMP act inh 6, Rce1 inhib inactive and MT1-MMP act inh RFP 0.
`Cc1ccc(CC(=O)N2CCN(Cc3ccccc3)CC2)cc1` gave HIV Env fusion 12, eIF4H inh -3, CSC inhib -22, PABP FP inh -8, MT1-MMP act inh 0, Rce1 inhib inactive and MT1-MMP act inh RFP 5.
`COC(=O)C1=CCCN(C)C1` gave UUG fidelity -15, HIV Env fusion -27, eIF4H inh -1, CSC inhib -7, PABP FP inh 6, MT1-MMP act inh 0, Rce1 inhib inactive and MT1-MMP act inh RFP 2.
CCCC(C)C1(CC)C(=O)NC(=Nc2ccc(OC)cc2)NC1=O (configuration not stated) was read as UUG fidelity -20, HIV Env fusion -13, eIF4H inh 2, CSC inhib 3, PABP FP inh 0, MT1-MMP act inh 0, Rce1 inhib inactive and MT1-MMP act inh RFP 2.
`O=[N+]([O-])c1ccc(NCCCN2CCOCC2)nc1` gave UUG fidelity -21, HIV Env fusion -28, eIF4H inh 9, CSC inhib -15, PABP FP inh 8, MT1-MMP act inh -2, Rce1 inhib inactive and MT1-MMP act inh RFP -1.
CN(C)C(=O)NC(O)C(Cl)(Cl)Cl (configuration not stated) was read as UUG fidelity -2, eIF4H inh 2, CSC inhib -9, PABP FP inh -8, MT1-MMP act inh 5, Rce1 inhib inactive and MT1-MMP act inh RFP 2.
Screening CN1CCN(c2ccc([N+](=O)[O-])c(SCCO)c2)CC1 returned HIV Env fusion 11, eIF4H inh -7, CSC inhib -2, PABP FP inh -10, MT1-MMP act inh -6, Rce1 inhib inactive and MT1-MMP act inh RFP -5.
Screening COC(=O)C1=C(c2ccc3ccccc3c2)C[C@@H]2CC[C@H]1N2C(=O)NCc1ccc(C(F)(F)F)cc1 returned UUG fidelity -25, HIV Env fusion 7, CSC inhib 50, MT1-MMP act inh -4 and MT1-MMP act inh RFP -10.
`CN1C(=O)N(C)C(=O)C2(Cc3cc(NC(=O)c4ccccc4Cl)ccc3N3CCCC32)C1=O` (configuration not stated) gave UUG fidelity -13, HIV Env fusion -17, eIF4H inh 29, CSC inhib -4, PABP FP inh 3, MT1-MMP act inh -1, Rce1 inhib inactive and MT1-MMP act inh RFP 3.
`CN(C)C(=O)Oc1cc(OC(=O)N(C)C)cc(C(O)CNC(C)(C)C)c1` (configuration not stated) gave UUG fidelity -24&-9, HIV Env fusion -34&11, CSC inhib 2&5, MT1-MMP act inh 4&1 and MT1-MMP act inh RFP 7&2.
CCN1CCN(c2ccc([N+](=O)[O-])cc2C(=O)OC)CC1 was read as UUG fidelity -13, HIV Env fusion -28, eIF4H inh -2, CSC inhib 1, PABP FP inh 1, MT1-MMP act inh 0, Rce1 inhib inactive and MT1-MMP act inh RFP 3.
For Cc1cccnc1-n1c(-c2ccccc2)nc2ccccc2c1=O the results were UUG fidelity -8, HIV Env fusion -45, eIF4H inh 2, CSC inhib -9, PABP FP inh -4, MT1-MMP act inh 4, Rce1 inhib inactive and MT1-MMP act inh RFP 3.
For CNC(=O)OCc1n(C)cc[n+]1C the results were HIV Env fusion -14, eIF4H inh 3, CSC inhib 0, PABP FP inh -7, MT1-MMP act inh -2, Rce1 inhib inactive and MT1-MMP act inh RFP 1.
`COc1ccccc1N1CCN(CCc2ccccc2)CC1` gave UUG fidelity -21, HIV Env fusion 11, eIF4H inh 6, CSC inhib 23, PABP FP inh 10, MT1-MMP act inh -1, Rce1 inhib inactive and MT1-MMP act inh RFP 1.

Source: PubChem BioAssay (several laboratories)
